CtBP-E1A blk: inhibitors of CtBP/E1A interaction. AlphaScreen GST-E1A/His-CtBP binding, 1536-well; hits give low values; control for the full effect not named in the record. activity change, % (no concentration beside the values). actives 0.49% (n = 340,000). AID 651724; in the data active means activity change below about -65%; inconclusive means about -30% to -65%; inactive means above about -30%; also: % is scaled to controls: 0 for no effect and ±100 for the full control effect; compound concentration not given in the record
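In 5 uL wells, 23 nL compound meets equimolar GST-E1A and His-CtBP (5X stock 125 nM each) for 2 h, 37 °C. Beads (5X, 50 ug/mL) then 1 h, 37 °C, dark.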
Six1-Eya2 blk: inhibitors of human Six1/Eya2 interaction. activity change, % (concentration not given with the values). actives 0.56% (n = 360,000). Q15475+O00167. AlphaScreen GST-Six1/His-Eya2 binding, biochemical; hits give low values; control for the full effect not named in the record. AID 651725; in the data active = activity change below about -65%; inconclusive = about -30% to -65%; inactive = above about -30%; also: % is scaled to controls: 0 for no effect and ±100 for the full control effect
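AlphaScreen with GST-Six1 and His-Eya2 (5X mix: 250 nM and 500 nM), glutathione donor and nickel acceptor beads; buffer 50 mM Tris pH 8.0, 300 mM NaCl, 1 mM TCEP; 1 h at 37 C in the dark.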
D2 potentiator: human D2 receptor positive allosteric modulation. P14416. DiscoveRx D2 beta-arrestin cells, luminescence, 90 min; 100% = 57 uM dopamine signal. potentiation, % (test concentration not listed). actives 0.23% (n = 360,000); active = potentiation of 50% or more; inconclusive = 30% to 50%; inactive = 30% or less;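 also: compound concentration not given in the record; tested on top of an EC20 dose of dopamine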
Target sequence (P14416 whole entry, looked up): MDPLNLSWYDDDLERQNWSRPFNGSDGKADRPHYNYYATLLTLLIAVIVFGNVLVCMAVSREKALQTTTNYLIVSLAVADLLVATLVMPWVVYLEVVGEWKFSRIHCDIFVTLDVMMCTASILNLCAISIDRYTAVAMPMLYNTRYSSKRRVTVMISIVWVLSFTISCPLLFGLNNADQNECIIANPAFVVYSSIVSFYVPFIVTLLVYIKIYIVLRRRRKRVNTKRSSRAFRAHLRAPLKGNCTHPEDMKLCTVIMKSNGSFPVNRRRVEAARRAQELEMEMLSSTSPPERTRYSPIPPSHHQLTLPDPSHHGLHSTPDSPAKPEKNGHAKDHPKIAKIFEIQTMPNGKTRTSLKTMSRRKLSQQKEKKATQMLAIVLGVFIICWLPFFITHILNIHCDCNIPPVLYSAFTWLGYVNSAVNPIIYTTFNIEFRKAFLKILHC
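PathHunter D2 cells, attached overnight at 37 deg C, received compound in DMSO plus dopamine at EC20 (50 nM final) for 90 min at 37 deg C. Beta-arrestin recruitment was read as luminescence after 1 h with detection reagent at ambient temperature.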
D2 ag: activates the human D2 dopamine receptor | P14416 | DiscoveRx PathHunter D2 beta-arrestin, luminescence, 90 min; 100% = 57 uM dopamine signal | activation, % (concentration not given with the values) | actives 0.084% (n = 360,000) | AID 624465; in the data active = activation above about 40%; inconclusive = about 15% to 40%; inactive = below about 15%; also: compound concentration not given in the record; the text of the record calls up to 30% inactive
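Agonist mode: compounds alone added to overnight-plated D2 PathHunter cells for 90 min at 37 C, with 57 uM final dopamine (EC100) defining full response. Beta-arrestin recruitment detected by chemiluminescent reagent, read after 1 h at ambient temperature.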
PINK1 expr mod: changes PINK1 expression; PINK1 immunofluorescence, high-content cytometry, 24 h; Potency, µM (highest dose often 76.6 µM), inactives show at the top dose activation (PINK1 increase), hits mostly activators; actives 0.2% (n = 410,000); active = well fitted activation curve with a large enough effect; inconclusive = small, poorly fitted or top-dose-only effect; inactive = flat fitted curve, though single readings scatter; cell line not stated here;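 also: potency is read from the fitted curve at half-maximal effect; % of control where 0% means no effect; nearly all actives have a fitted effect of over 65% in size; a mitochondrial uncoupler was the plate control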
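Decision-based qHTS: stable cells, 24 h exposure to five compound concentrations, CCCP as control. Fixed cells stained for PINK1 plus nuclear, mitochondrial and cell markers, cytometer read.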
TRPML1 agonist: human mucolipin-1 channel agonism. Q9GZU1. TRPML1-expressing cells, Ca2+ dye fluorescence, FDSS; host cell line not named in the record; reference of the full effect not given here. activation, % (no concentration beside the values). actives 0.12% (n = 410,000). AID 624414; in the data active = activation above about 50%; inconclusive = about 30% to 50%; inactive = below about 30%; also: 0% is about no effect; the text of the record puts the active cut at 80%
Target sequence (Q9GZU1 whole entry, looked up): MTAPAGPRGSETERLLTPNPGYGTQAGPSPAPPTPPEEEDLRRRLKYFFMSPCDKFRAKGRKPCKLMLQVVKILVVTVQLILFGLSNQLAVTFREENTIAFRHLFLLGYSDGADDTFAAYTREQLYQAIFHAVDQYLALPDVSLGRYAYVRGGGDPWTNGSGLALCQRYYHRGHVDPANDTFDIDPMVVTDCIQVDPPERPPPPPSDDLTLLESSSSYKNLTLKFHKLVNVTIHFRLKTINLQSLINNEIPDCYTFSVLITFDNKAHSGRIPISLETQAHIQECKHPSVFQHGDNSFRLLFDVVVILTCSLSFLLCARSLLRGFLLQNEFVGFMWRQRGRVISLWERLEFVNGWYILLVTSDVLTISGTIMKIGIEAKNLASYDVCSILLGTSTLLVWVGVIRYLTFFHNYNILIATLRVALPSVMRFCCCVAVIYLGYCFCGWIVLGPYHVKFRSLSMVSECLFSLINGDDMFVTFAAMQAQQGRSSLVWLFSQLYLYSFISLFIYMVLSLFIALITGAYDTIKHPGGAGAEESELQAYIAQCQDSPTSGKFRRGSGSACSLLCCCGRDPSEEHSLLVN
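Kinetic FDSS Ca2+ read in Tet-induced TRPML1-DL cells (ABD Ca8 dye plus quencher, 45-90 min RT loading): baseline, then compound, then 110 s agonist window; EC80 agonist 54-4 at 4uM final added afterwards for a 110 s antagonist window.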
Active calls of the source: *; ? = inconclusive; . = no result given; & = joins results of further samples; [ ] = another dose, or the depositor's remark.

entry	structure	CtBP-E1A blk	Six1-Eya2 blk	D2 potentiator	D2 ag	PINK1 expr mod	TRPML1 agonist
1	CC[C@H](C)[C@H](NC(N)=O)C(=O)NNC(=O)c1ccc(COc2cccc3cccnc23)cc1	-27	-6	-2	-3.3	0.4%	0.1
2	CCOc1ccc(NC(=O)c2cccc3c2C(=O)N(Cc2cccnc2)C3)cc1	1	-2	-1	-3.3	1.8%	-0.5
3	COc1ccc(S(=O)(=O)NCC(c2cccnc2)N2CCN(Cc3ccccc3)CC2)cc1C (stereo unspecified)	0	0	-4	2.0	-0.3%	-0.1
4	CC(CN1CCCC1)OC(=O)Cc1ccc(Cl)cc1 (stereo unspecified)	-11	-4	-11	-0.5	-0.2%	0.6
5	CCCCCC(=O)Nc1nc(C)c(-c2csc(Nc3cc(Cl)ccc3C)n2)s1	.	-2	-2	-2.6	1.2%	-0.3
6	COc1cccc([C@@H]2CC=C(C(=O)O)[C@H](c3ccc(F)cc3)N2S(=O)(=O)c2ccc(C)cc2)c1	.	2	-5	0.5	1.0%	-0.1
7	Cc1ccc(SCCNC(=S)Nc2ccc(C)c(C)c2)cc1	-22	-16	-7	-1.0	-4.9%[38.3 µM]	0.7
8	CCOc1ccc(NC(=S)NCc2ccc3c(c2)OCO3)cc1	-8	-9	-8	-1.5	1.8%	0.0
9	COc1ccc(Cl)c2sc(N(CCN(C)C)C(=O)c3ccc4c(c3)OCCO4)nc12	-7	-10	-6	-2.3	11%	0.1
10	CC(=O)N[C@@H](Cc1c[nH]c2ccccc12)C(=O)OCC(=O)Nc1ccc(S(=O)(=O)N(C)C)cc1	5	0	7	6.3	0.6%	0.6
11	CCOC(=O)N1CCN(C(=O)CSc2ccc(-c3ccccc3)nn2)CC1	-21	7	-8	-3.0	1.0%	1.5
12	CCCCNCCCOc1ccc(C)cc1Br	.	-1	-13	7.3	3.5%	-0.3
13	Cc1nc2cc(C(F)(F)F)ccc2n1C1CCN(CC(=O)N2CCCC2)CC1	.	-4	-19	2.0	-1.6%	0.0
14	CCn1c(NC(=O)C(C)C)c2ccccc2nc1=O	.	0	14	1.9	-1.6%	3.0
15	CN(Cc1ccc(OC(F)F)cc1)C(=O)c1cccc(S(=O)(=O)N2CCN(Cc3ccccc3)CC2)c1	-5	-11	3	2.1	3.2%	0.0
16	O=C(CCc1nc2sc3c(c2c(=O)[nH]1)CCCC3)Nc1ccccc1Cl	-19	-3	4	-2.4	3.7%	4.5
17	CCOc1ccc(-c2n[nH]c(C(=O)NN)c2C)cc1	2	-1	-2	-2.5	2.4%	1.4
18	CSc1cccc(NC(=O)c2sc3nc4n(c(=O)c3c2C)CCC4)c1	-20	-8	8	-10	-0.2%	-0.4
19	CCOc1c2ccc(C(=O)NCc3ccc(C(F)(F)F)cc3C(F)(F)F)cc2nn1C	.	-5	-23	-4.2	6.6%	-0.1
20	COc1ccc(/C=N/Nc2nncc3ccccc23)c(OC)c1	-12	-19	-22	0.4	12%	1.4
21	O=C(N/N=C/c1ccccc1Br)c1cccc(S(=O)(=O)N2CCOCC2)c1	-10	-11	-1	-2.4	3.6%	-0.3
22	Cc1cccc(NC(=O)CSc2nsc(SCC(=O)Nc3cccc(C)c3)c2C#N)c1	.	-11	-7	2.7	5.3%	1.3
23	C[C@@H]1NS(=O)(=O)[C@H]2C[C@@H]3C=C[C@]2(O3)[C@H]1OC(=O)c1ccccc1Br	10	5	-8	0.6	0.9%	-0.8&-0.4
24	COc1ccc(C(=O)N/N=C(\C)CC(=O)Nc2ccc3c(c2)OCO3)cc1	-16	-18	-13	-5.6	-1.3%	-0.3
25	CC(Oc1ccc2ccc(=O)oc2c1)C(=O)NCCN1CCOCC1 (stereo unspecified)	.	8	-9	-4.6	-1.6%	-0.1
26	CCOc1ccc(N(CC(=O)NCc2ccc(F)cc2)C(=O)c2ccco2)cc1	1	0	-13	-4.2	1.6%	0.5
27	COc1ccc(-n2c(N)cc(=O)nc2SCC(=O)NC2CCCCC2)cc1	-10	8	-6	4.8	-0.2%	0.6
28	COc1ccc(NC(=O)c2ccccc2)c([N+](=O)[O-])c1	-6	-5	18	14	1.4%	3.4
29	COc1ccc(N2CCN(CCNC(=O)C3CC(=O)N(C4CCCC4)C3)CC2)cc1 (stereo unspecified)	7	1	-13	-0.6	5.0%[38.3 µM]	-0.3
30	O=C(CSc1nc(C(F)(F)F)cc(=O)[nH]1)Nc1nccs1	-13	4	-4	-2.8	0.7%	0.1
31	Cc1nc(NC(=O)C23CC4CC(CC(C4)C2)C3)sc1Cc1ccc2c(c1)OCO2	0	10	6	5.6	?	0.9
32	CC(=O)N1CCN(C(=O)c2ccc(Oc3ccccc3)cc2)CC1	4	10	4	2.3	3.7%	0.4
33	CC1(C)SC[C@H](C(=O)Nc2cccc(Cl)c2)N1C=O	-2	17	-6	-6.2	-0.4%	0.2
34	C=CCOc1ccc(/C=N/NC(=O)c2cc3c(OC)cc(OC)cc3[nH]2)cc1	1	-23	11	?	-0.2%	.
35	CC(C)N=C(NC#N)SCc1ccc(Br)cc1	5	-2	-21	-3.8	0.1%	-0.6
36	O=C(O)c1ccc(S(=O)(=O)N2CCCC2)cc1	2	0	4	2.6	-0.9%	0.0
37	COc1cc(C=O)c(Br)cc1OCC(=O)NCc1ccccc1	.	7	-5	8.1	0.3%	0.9
38	Cc1ccc(S(=O)(=O)N(C)c2ccc(OCC(=O)Nc3ccc(C(=O)N(C)C)cc3)cc2)cc1C	3	16	-17	-3.8	0.2%	1.5
39	CN(Cc1c(F)cccc1Cl)C(=O)CNC(=O)c1sc2ccccc2c1Cl	-2	9	-30	-2.0	2.0%	-0.4
40	COc1cccc2c(C)c(C(=O)O)[nH]c12	-3	1	?	-0.8	0.6%	-0.1
41	N#C/C(=C\Nc1ccc(Cl)cc1)S(=O)(=O)c1ccccn1	5	-7	-4	-3.3	1.7%	-0.9
42	O=C(NCC(=O)N1CCN(Cc2ccccc2)CC1)c1cccs1	-8	2	-1	7.4	-2.2%	-0.3
43	Cc1ccc(S(=O)(=O)N(C)C)cc1NC(=O)CCc1ccccc1	6	4	-16	-2.5	3.0%	2.7
44	CCc1nc2c(OCC(=O)c3ccc(Cl)cc3Cl)cccn2c1N(C)C(=O)c1ccncc1	-2	2	-4	-3.2	1.5%	-0.5
45	CCOc1ccc(/C(C)=N\NC(=O)Cc2ccccc2)cc1	-2	2	-4	-4.2	1.8%	1.6
46	COc1cccc(C2Nc3ccc4ccccc4c3C3=C2C(=O)CCC3)c1O (stereo unspecified)	8	2	-6	-1.0	6.3%	-0.9
47	CCCNC(=O)C(=O)N/N=C/c1cccs1	21	0	-9	-4.3	3.8%	-0.5
48	CC(=O)N1N=C(c2cccc([N+](=O)[O-])c2)OC1c1ccc(Br)cc1 (stereo unspecified)	.	-1	7	7.0	-0.8%	1.0
49	O=C(CN1C(=O)c2ccccc2C1=O)NCCc1c[nH]c2ccc(Cl)cc12	.	-16	-6	-3.1	0.5%	-0.8
50	COC(=O)c1ccc(OC)c(-c2c(OC)cc(OC)cc2OC)c1	9	6	-5	-1.9	1.8%	15

Record cards, as listed above. Order of values: CtBP-E1A blk, Six1-Eya2 blk, D2 potentiator, D2 ag, PINK1 expr mod, TRPML1 agonist
Entry for O=C(CSc1nc(C(F)(F)F)cc(=O)[nH]1)Nc1nccs1 → -13, 4, -4, -2.8, 0.7%, 0.1
Entry for Cc1nc2cc(C(F)(F)F)ccc2n1C1CCN(CC(=O)N2CCCC2)CC1 → ., -4, -19, 2.0, -1.6%, 0.0

The list goes on.
entry	structure	CtBP-E1A blk	Six1-Eya2 blk	D2 potentiator	D2 ag	PINK1 expr mod	TRPML1 agonist
51	CCN(CC)c1ccc(NC(=O)c2nc3nc(C)cc(C(F)F)n3n2)cc1	-1	-24	-2	5.3	0.5%	0.1
52	COc1ccc(OC)c(C(C)NC(C)=O)c1 (stereo unspecified)	-8	2	-1	0.2	2.3%	3.2
53	CCP(=O)(CC)C(C)(C)CP(=O)(c1ccccc1)c1ccccc1	8	2	-6	1.1	2.2%[38.3 µM]	-0.3
54	COCC1CCCCC1OS(N)(=O)=O (stereo unspecified)	5	1	-10	-3.3	-0.1%	-0.4
55	O=C(NNC(=O)c1ccccc1-c1ccccc1C(=O)O)c1cccc([N+](=O)[O-])c1	1	0	1	-6.2	0.3%	0.8
56	COc1ccc(-n2cc(-c3ccccc3)c3c(NCCOCCO)ncnc32)cc1	.	-12	9	2.1	1.8%	-0.6
57	Cc1cccc(OCC(=O)NCC(=O)N/N=C/c2ccc(N(C)C)cc2)c1	3	-1	16	-1.1	11%	0.9
58	Cc1c(Cc2ccccc2)c(=O)oc2cc(OC(C)C(=O)NCC3CCC(C(=O)O)CC3)c(Cl)cc12 (stereo unspecified)	-7	-6	-29	-1.5	2.6%	.
59	COc1cc2c(cc1NC(=O)CSc1nc3ccccc3[nH]1)oc1ccccc12	-2	-15	-4	2.3	-0.9%[38.3 µM]	1.2
60	Cc1ccc(-c2c(C#N)c(N)nc3c2CCCCC3)cc1	0	2	-12	0.3	?	0.1
61	N#CCc1c(C#N)c(N)nc(N2CCOCC2)c1C#N	.	7	-8	-2.6	0.9%	0.3
62	COc1ccc(-c2nnc3ccc(SCC(=O)NCc4ccco4)nn23)cc1	-16	-14	-6	-3.2	3.4%[38.3 µM]	0.4
63	CCOC(=O)N1CCN(C(=O)c2cccc(OC)c2O)CC1	2	-3	?	-4.0	.	0.0
64	CCOc1ccccc1NC1=C(Cl)C(=O)N(c2ccc(OC)cc2)C1=O	?	-22	-8	1.9	-0.2%	2.6
65	COc1ccccc1Cn1c(=S)[nH]c2cc(C(=O)NCCN3CCOCC3)ccc2c1=O	-3	1	-11	-1.7	4.0%[38.3 µM]	-0.4
66	CC(=O)Nc1c(C(=O)NCc2ccccc2)nnn1Cc1ccccc1	0	22	-44	-3.6	2.1%	0.2
67	Cc1cc2nc(C(C)(C)C)c(Cc3cccc(F)c3)n2c(C)c1Br	9	9	4	-3.6	?	0.1
68	O=C(COC(=O)c1cc([N+](=O)[O-])ccc1N1CCOCC1)Nc1ccc(Cl)cn1	-2	-17	5	1.6	0.9%	0.9

Source: PubChem BioAssay (National Center for Advancing Translational Sciences (NCATS))
